# Assay outcomes from PubChem BioAssay.
# NPR1 antag – Natriuretic polypeptide receptor (hNpr1) antagonism - Primary qHTS; Atrial natriuretic peptide receptor 1 (Homo sapiens), P16066; HEK293 hNpr1 GloSensor cGMP, ANP-stimulated luminescence; Potency, µM (highest dose often 46.3 µM), inactives show at the highest dose activity change, negative = inhibition, hits mostly inhibitors; 76,000 tested, 1.6% active; active = well fitted inhibition curve with a large enough effect; inconclusive = small, poorly fitted or top-dose-only effect; inactive = no such curve, though single readings can be large or run the other way;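 note: nearly all actives have a fitted effect of over 60% in size; nearly all hits also lower the signal before the agonist is added; a reference antagonist and vehicle were the controls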
# Target sequence (P16066 whole entry, looked up): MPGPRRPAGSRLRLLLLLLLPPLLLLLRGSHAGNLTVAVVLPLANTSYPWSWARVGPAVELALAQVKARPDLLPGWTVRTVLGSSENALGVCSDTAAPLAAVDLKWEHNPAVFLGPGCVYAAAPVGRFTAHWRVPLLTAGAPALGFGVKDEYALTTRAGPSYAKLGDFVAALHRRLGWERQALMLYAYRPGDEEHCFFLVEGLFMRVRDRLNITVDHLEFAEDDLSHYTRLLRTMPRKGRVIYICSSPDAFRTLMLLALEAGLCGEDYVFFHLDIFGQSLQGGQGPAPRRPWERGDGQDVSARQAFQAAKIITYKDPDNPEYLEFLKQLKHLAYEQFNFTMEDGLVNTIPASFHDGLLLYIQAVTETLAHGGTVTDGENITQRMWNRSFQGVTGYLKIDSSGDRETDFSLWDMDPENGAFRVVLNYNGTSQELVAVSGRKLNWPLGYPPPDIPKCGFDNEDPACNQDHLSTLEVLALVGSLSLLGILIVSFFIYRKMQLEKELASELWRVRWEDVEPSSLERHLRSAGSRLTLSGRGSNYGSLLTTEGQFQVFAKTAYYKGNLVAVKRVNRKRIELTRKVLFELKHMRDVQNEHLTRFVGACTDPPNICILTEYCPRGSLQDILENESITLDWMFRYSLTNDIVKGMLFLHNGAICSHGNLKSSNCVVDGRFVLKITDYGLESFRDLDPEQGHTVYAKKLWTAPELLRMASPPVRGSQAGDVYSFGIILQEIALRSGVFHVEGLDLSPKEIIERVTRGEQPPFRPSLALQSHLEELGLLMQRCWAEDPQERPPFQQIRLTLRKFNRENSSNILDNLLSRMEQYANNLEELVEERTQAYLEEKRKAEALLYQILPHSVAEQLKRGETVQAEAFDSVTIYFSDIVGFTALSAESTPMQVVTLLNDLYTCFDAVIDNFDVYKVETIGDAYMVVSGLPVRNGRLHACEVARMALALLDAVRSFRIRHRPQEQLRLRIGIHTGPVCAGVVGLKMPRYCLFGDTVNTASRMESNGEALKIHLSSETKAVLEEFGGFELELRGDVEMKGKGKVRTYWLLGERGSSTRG
#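 HEK293 cells stably expressing human Npr1 and cGMP GloSensor pGS-40F, loaded 2 h with 2% GloSensor reagent, given compound 30 min at room temperature. Luminescence read before and 20 min after 0.1 nM hNppA.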
# Active calls of the source: *; ? = inconclusive; [ ] = remark or other dose. % is set by controls: 0 for no effect and ±100 for the full control effect; potency is the fitted concentration of half-maximal effect. Only part of the results is shown, so the mix of outcomes need not match the whole.
NPR1 antag	SMILES
-4%	Clc1ccccc1C1(c2ccnc(-c3ccccc3)n2)CCNCC1
0%	COCc1nnc2n1CCC(NC(=O)c1n[nH]c3ccccc13)CC2 (centres undefined)
?	O=C(N1CCOc2ccc(CN3CCc4ccccc4C3)cc2C1)C1(c2ccccc2)CC1
1%	COc1cc2c(cc1OC)C(CNC(=O)C1CCCC1)N(C(=O)Nc1cccc(C)c1)CC2 (centres undefined)
2%	CCCCc1cn(CC2CCN(C(=O)c3ccsc3)CC2)nn1
3%	COc1ccc2[nH]c(CNc3cc(C4CC(N)C4)nc(C)n3)cc2c1 (centres undefined)
14%	CCCCN(CC)C(=O)CC1CCCN(c2cn[nH]c(=O)c2)C1 (centres undefined)
6%	COc1cc(F)c(CN2CC[C@@](O)(C3CC3)[C@H](C)C2)cc1OC
5%	CCCc1cc(N2CCC(NCc3c(F)cccc3Cl)CC2)nc(C)n1
4%	COCCN1CCCC2(CCN(Cc3cc(-c4ccccc4)no3)C2)C1=O (centres undefined)
-13%	C=CCn1cc(CN(Cc2ccco2)Cc2cccs2)c(C)n1
-16%	CSc1ccc(CN2CCN(Cc3ccccc3F)C(CCO)C2)cc1 (centres undefined)
-2%	O=C(c1cnccn1)N1CCC(N2CC3CC(C2)[C@H]2CCCC(=O)N2C3)CC1 (some centres undefined)
-10%[70.6 µM]	O=C([C@@H]1Cc2nc[nH]c2CN1Cc1ccc(Cl)cc1)N1CCOCC1
1%	Cc1cccc(C(=O)NCC(=O)N2CCCCCCNC(=O)CC2c2ccccc2)c1 (centres undefined)
2%	c1cnc(N2CCC3(CCCN3Cc3ccc(-c4ccn[nH]4)o3)CC2)nc1
1%[70.6 µM]	COc1cc(C)c2c(c1C)C[C@H](C(C)C(=O)N1CCN(CCO)CC1)CC2 (some centres undefined)
-7%	COCC(=O)N[C@H]1C[C@@H](CO)N(Cc2cccc(C#N)c2)C1
-2%	Cc1noc(C)c1CC(=O)N1CCC2(CC1)N(c1ccccc1)C(=O)CS2=O (centres undefined)
0%	COC[C@@H]1[C@H](NC(=O)COc2ccc(-n3cnnn3)cc2)[C@@H]2CCO[C@H]12

# Shown with each value named: 4 of the compounds above.
Structure: COCCN1CCCC2(CCN(Cc3cc(-c4ccccc4)no3)C2)C1=O (centres undefined)
  NPR1 antag = 4%
Structure: Cc1noc(C)c1CC(=O)N1CCC2(CC1)N(c1ccccc1)C(=O)CS2=O (centres undefined)
  NPR1 antag = -2%
Structure: COc1ccc2[nH]c(CNc3cc(C4CC(N)C4)nc(C)n3)cc2c1 (centres undefined)
  NPR1 antag = 3%
Structure: O=C([C@@H]1Cc2nc[nH]c2CN1Cc1ccc(Cl)cc1)N1CCOCC1
  NPR1 antag = -10%[70.6 µM]

# Another view of some results above.
structure	NPR1 antag
COc1cc(F)c(CN2CC[C@@](O)(C3CC3)[C@H](C)C2)cc1OC	6%
CCCc1cc(N2CCC(NCc3c(F)cccc3Cl)CC2)nc(C)n1	5%
COCCN1CCCC2(CCN(Cc3cc(-c4ccccc4)no3)C2)C1=O (centres undefined)	4%
C=CCn1cc(CN(Cc2ccco2)Cc2cccs2)c(C)n1	-13%
CSc1ccc(CN2CCN(Cc3ccccc3F)C(CCO)C2)cc1 (centres undefined)	-16%
O=C(c1cnccn1)N1CCC(N2CC3CC(C2)[C@H]2CCCC(=O)N2C3)CC1 (some centres undefined)	-2%

# The listing continues.
NPR1 antag	SMILES
-6%	Cc1cccc(OCCc2noc(C3CCCN3C(=O)c3cccc(C)c3)n2)c1 (centres undefined)
1%	CN(Cc1cn[nH]c1-c1ccc(F)cc1)C(=O)c1ccccc1C1CCNC1 (centres undefined)
0%	O=C(NC1CCCCC1)N1CCCC1c1noc(COc2ccc(F)cc2)n1 (centres undefined)
-23%	O=C(NCc1ccccc1Cl)c1ccc(CN2C(=O)NC3(CCOCC3)C2=O)cc1
-12%	COc1ccc(CCc2nc3nccc(-c4ccsc4)n3n2)cc1OC
-2%	CN1CCN(c2nc3c(c(=O)[nH]2)CCN(Cc2ccc(F)c(F)c2)CC3)CC1
-2%	N#Cc1ccc(CN2CCCCCCNC(=O)CC2)cc1
10%	COc1cccc(C(=O)N[C@@H]2CN(Cc3cccnc3)C[C@H]2CN(C)C)c1
3%	COc1cc(CNCc2ccccc2C)ccc1OCC(O)CN1CCC(O)CC1 (centres undefined)
-7%	COCCCNC(=O)N1CCCCCCn2c(nnc2-c2ccc(F)cc2)CC1
0%	COC1C(=O)N(C2CCN(C(=O)c3cccnc3)CC2)C12CCOCC2 (centres undefined)
-1%[70.6 µM]	c1cncc(CN2CCNc3cc(-c4cn[nH]c4)ncc3C2)c1
4%	Cc1noc([C@@H]2CN(S(=O)(=O)c3ccc(C#N)cc3)C[C@H]2C(N)=O)n1
3%	CCn1ncc(N2CCC(NC(=O)c3ccc(C)c(C)c3)CC2)cc1=O
4%[70.6 µM]	CC1CCN([C@@H]2[C@H](O)[C@H](CO)O[C@@H]2CNC2CCCCC2)CC1
5%	COC(=O)[C@H](Cc1ccc(OC)cc1)NC(=O)[C@@H]1CN(S(C)(=O)=O)CCN1S(=O)(=O)c1ccccc1
6%	O=C(C1CC(=O)N(c2n[nH]c3cccc(F)c23)C1)N1CCSCC1 (centres undefined)
0%	O=C1[C@@H]2C[C@@H](O)CN2C2(CN(Cc3ccc(OC(F)(F)F)cc3)C2)C(=O)N1Cc1ccccc1
5%	O=C(CCC[C@@H]1[C@H]2CCCN3CCC[C@@H](CN1Cc1ccccc1)[C@@H]23)NCCCn1cccn1
4%	CCCCN1C[C@@H](CO)[C@H](c2nc(CCOC)no2)C1
-1%	COCC1CN(S(=O)(=O)c2cc(F)ccc2OC)CC12CCNCC2 (centres undefined)
-1%[70.6 µM]	COc1cccc(C(=O)N[C@H]2[C@H](O)[C@H](O)C[C@@H]2c2cccnc2)c1
2%	Cc1cccc(CN2CCCC3(CCN(C(=O)CCc4ccccc4C)C3)C2)c1 (centres undefined)
4%[70.6 µM]	COCCN1C(=O)[C@@H]2C[C@@H](CN2C(=O)c2ccc3c(c2)OCO3)Oc2ccccc21
7%	CN1C(=O)c2cccn2CC1CNC(=O)c1cc(CN2CCOCC2)on1 (centres undefined)
-3%	COCCO[C@H]1C(=O)N(C2CCN(C(=O)c3cnccn3)CC2)[C@H]1c1ccncc1
1%	Cc1[nH]cnc1CN1CCCC(c2nnc(CN3CCC(O)CC3)n2C)C1 (centres undefined)
9%	CC(=O)Nc1cccc(-c2nc(N3CCOCC3)cc3c2CN(Cc2cnn(C)c2)C3=O)c1
5%	COc1cccc(C(=O)N2CCc3nc(-c4ccccc4)nc(-c4ccc(Cl)cc4)c3C2)c1
3%	COc1ccc(C(=O)N[C@H]2CC[C@]3(C)CCC([C@H](C)C(=O)N4CCC(C)CC4)[C@H](O)[C@H]3[C@@H]2C)cc1 (some centres undefined)
0%	CCCN(C)C(=O)Cn1c(C)ccc(NS(=O)(=O)c2ccc(C)cc2)c1=O
3%	COCc1noc([C@@H]2CN(S(=O)(=O)Cc3ccccc3F)C[C@H]2C(N)=O)n1
5%	O=S(=O)(NCCn1cc(-c2cncnc2)nn1)c1ccc(Cl)cc1
0%	Cc1ccc(CNC(=O)N2CCC3(CC2)CC(N(C(=O)NC(C)C)C2CC2)CCO3)cc1 (centres undefined)
1%	O=C(C1CCC1)N1CCC(N2CC(OCC3CC3)C23CCOCC3)CC1 (centres undefined)
1%	O=C(c1cc(F)ccc1F)N1CC2CC(C1)[C@H]1CCCC(=O)N1C2 (some centres undefined)
0%	COCCCNC(=O)N1CCN(C(=O)N2CC3CC(C2)[C@H]2CCCC(=O)N2C3)CC1 (some centres undefined)
-10%	Cc1cnc(CCN)n1Cc1ccccc1
7%	CCOCC(=O)N1CCCCCNC(=O)[C@@H]2CCCC[C@@H]21
?	Cc1c(Cl)cccc1NC(=O)c1cc2n(n1)CC(c1ccc(Cl)cc1)OC2 (centres undefined)
0%	Nc1n[nH]c(C(=O)N2C[C@H](CO)C[C@H](CN3CCOCC3)C2)c1Cl
18%[70.6 µM]	CC(=O)Nc1ccc(CN(C)Cc2cccn2C)cc1
1%	COCC1CN(C(C)=O)CC12CCN(C(=O)CCCc1ccccc1)CC2 (centres undefined)
7%[70.6 µM]	O=C(c1cnccn1)N1C[C@@H]2OCC(=O)N(CC3CCCCC3)[C@@H]2C1
5%	C[C@@H]1CN(C(=O)c2coc(COc3cccc(F)c3)n2)C[C@H](C)O1
2%[70.6 µM]	COCCNC(=O)C[C@@H]1C[C@H]2O[C@H](CNCc3cnccc3C(F)(F)F)[C@@H](O)[C@H]2O1
-2%	COCc1nnc2n1CCC(NC(=O)NCCc1ccccc1)CC2 (centres undefined)
4%[70.6 µM]	c1ccc(-c2nnc3ccc(N4CCc5ccccc5C4)nn23)nc1
-7%	Cc1nc2scc(CC(=O)NC3CC3)n2c(=O)c1-c1cc(C)n(-c2ccc(C(C)C)cc2)n1
10%	C#CCNC(=O)CC[C@H]1CNC(=O)[C@@H]2[C@@H](CCN2Cc2ccc(S(C)(=O)=O)cc2)N1C
1%[70.6 µM]	COc1cccc(N2C(=O)[C@@H]3C[C@@H](NC(=O)CSC)CCN3C2=O)c1
?	O=C(c1cccc(Cl)c1)N1CCN(C(=O)c2nnn3c2COC(c2ccccc2)C3)CC1 (centres undefined)
-30%	Cc1ccccc1Cn1cc(-c2ccncc2)cc1C(=O)N(C)Cc1ccco1
0%	O=C([C@@H]1C[C@H](F)CN1C(=O)Nc1ccc(F)cc1)N1CCCCC1
8%	O=C1CCN(S(=O)(=O)c2ccccc2)CCCCCCN1
-3%[70.6 µM]	COCC(=O)N[C@H]1CO[C@H]2[C@@H]1OC[C@@H]2Nc1nccc(-c2ccc(OC)cc2)n1
-14%	O=C(NC1CCN(c2cc(-c3ccc(F)cc3)[nH]n2)C1)c1ccc2c(c1)OCO2 (centres undefined)
3%	O=C(CC1C(=O)NCCN1Cc1ccoc1)NCc1nnc2n1CCCCC2 (centres undefined)
0%	COCCn1c(COc2c(F)ccc(Cl)c2F)nnc1C1CC(N)C1 (centres undefined)
5%	COc1ccc(C(=O)N2CCCN(c3nnc4ccccn34)CC2)cc1F

# Next section:
NPR1 antag	SMILES
3%	CO[C@H]1[C@H](NC(=O)c2ccc3nc[nH]c3c2)c2ccccc2C12CCNCC2
7%	CCOC(=O)N1CCC(NC2CC(=O)N(CCCc3ccccc3)C2)CC1 (centres undefined)
2%	CCOc1ccc(-c2ccnc(N3CCC(NC(C)=O)CC3)n2)cc1C(=O)O
1%	COCCN1CC(CO)C2(CCN(Cc3ccc(F)c(OC)c3)CC2)C1 (centres undefined)
-1%	COC[C@@H]1CN(Cc2ccco2)C[C@H]1C(=O)N(C)C
0%	O=[S+]1([O-])NC2(CCCN(Cc3cncs3)C2)CNc2ccccc21 (centres undefined)
3%[70.6 µM]	FC(F)(F)c1cccc(CN2CCOC[C@H](Oc3cnccn3)C2)c1
-9%	O=C(COc1ccc(Cl)cc1)N1C[C@@H](CO)[C@H](c2ccccn2)C1
-4%[70.6 µM]	COc1ccc([C@H]2C[C@@H](O)[C@@H](O)[C@@H]2NS(C)(=O)=O)cc1
0%[70.6 µM]	COCCNC(=O)c1nc2c(o1)CCN(Cc1cccc(F)c1F)CC2
-14%[70.6 µM]	Cn1ccnc1CN1CCNc2cc(Nc3ccccc3)ncc2C1
-1%	COCCN(C)C(=O)c1cn2cc(-c3ccc(F)cc3)n(CC=C(C)C)c(=O)c2n1
-3%	CN1C(=O)C(c2ccccc2)CC12CCN(C(=O)CNC(N)=O)CC2 (centres undefined)
-1%	COc1ccccc1-c1nc(C(=O)N2CCC(C#N)CC2)n2ccccc12
-9%	Cc1ccc(-c2noc([C@@H]3CCCN3C(=O)c3cnccn3)n2)cc1
6%	Cc1noc([C@@H]2CN(C(=O)c3cccc4[nH]ccc34)C[C@H]2CO)n1
4%[70.6 µM]	O=C(c1nc(-c2ccc(F)cc2)c2ccccn12)N1CCCC1
5%	COc1ccc(-c2cc(N3CCCN(C(=O)CC4CCCCC4)CC3)n[nH]2)cc1
-11%	COc1cccc(CN2CCOC3CCN([S+](=O)([O-])c4ccccc4C)CC3C2=O)c1 (centres undefined)
-3%	Cn1cccc1C(=O)N1CCC(N2CC3CC(C2)[C@H]2CCCC(=O)N2C3)CC1 (some centres undefined)
0%	CC(=O)N1CCC([C@@H]2CN(Cc3cccc(Cl)c3)C[C@H]2CO)CC1
-5%	CNC(=O)[C@@H]1CN(Cc2ccncc2)C[C@H]1COC
-10%[70.6 µM]	CN(C)c1cccc(-c2cnc3[nH]cc(CC(=O)NCc4cccnc4)c3c2)c1
2%	O=C(NC1CCN(c2ccccc2)C1=O)c1cccc(Cl)c1 (centres undefined)
5%	COCCN(C)C[C@H]1C[C@@H](CO)CN(C(=O)c2ccc(F)cc2C)C1
2%[70.6 µM]	CCOCCN1C(=O)COC[C@@H]1[C@H](O)c1ccc(NC(=O)c2ccnc(Cl)c2)cc1
-7%	CCCNC(=O)N1CCc2c(sc3ncnc(N4CCN(C)CC4)c23)C1
-28%	Cc1cc(S(=O)(=O)N2CCCC(Cn3cnc4cccnc43)C2)ccc1Cl (centres undefined)
5%	CC(C)C1CN(C(=O)c2n[nH]c3c2CCC3)CCC(=O)N1CC1CC1 (centres undefined)
0%[70.6 µM]	Cc1noc2c(-c3cccnc3NCCN3CCOCC3)cc(-c3ccccc3)nc12
